# YB-1 expr inh: YB-1 expression inhibition | U2OS, qRT-PCR YB-1 vs CDIP delta delta Cp, 16 h; stronger effect = higher value; zero = DMSO, each unit about twofold | delta delta Cp (YB-1 minus CDIP) (no concentration beside the values) | 30,000 tested, 0.37% active;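 active means delta delta Cp rounded down to an integer at or above 3, about 3 SD of DMSO wells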;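 further: higher means less YB-1 transcript or more CDIP transcript relative to DMSO; stock transfer was 100 nL into about 100 µL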
# Hedgehog inh: Sonic Hedgehog pathway inhibition | Shh-LIGHT2 Gli-luciferase reporter, 30 h | inhibition, % (no concentration beside the values) | 22,000 tested, 2.1% active;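 active means replicate mean of 65% or more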;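 further: pathway switched on by Shh-conditioned medium diluted 1 in 25 in low serum; 100 nL library stock added to about 40 µL; 0% = median of neutral wells and 100% = positive control level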
# MITF inhib: MITF inhibition; AID 2240; inhibition, % (no concentration beside the values); TRPM1 promoter luciferase, luminescence, 24 h; 37,000 tested, 0.28% active;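 active means most replicates at 85% or more, or half of them and the mean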;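 further: human melanocyte line stably carrying TRPM1 promoter luciferase reporter; 0% = vehicle wells and 100% = a positive control; the first replicate is given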
# PD-1 reverse act: reversal of PD-1 mediated T-cell inhibition. primary human CD4 T cells, PD-L1 beads, CellTiter-Glo 96 h. 29,000 tested, under 10 active. AID 2316. activation, % (concentration not given with the values);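 active means replicate mean of 50% or more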;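 further: 0% = median vehicle wells and 100% = positive control; 100 nL library stock added to about 50 µL; numbers are from one replicate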
# Starred values were filed as active, the others as inactive; . = no result given. Only part of the results is shown (hit frequency here may not be typical).
molecule,YB-1 expr inh,Hedgehog inh,MITF inhib,PD-1 reverse act
CCOC(=O)c1oc2ccccc2c1CO,0.15,97*,27,-0.4
C[C@H](CO)N1C[C@H](C)[C@H](CN(C)C)Oc2ccc(NC(=O)Cc3cn(C)c4ccccc34)cc2C1=O,-0.09,-1,8,0.0
O=C(/C=C/c1ccc(O)cc1)NCC(O)c1ccc(O)cc1 (stereo unspecified),0.051,-4,-2,1.5
C[C@@H]1CN([C@H](C)CO)C(=O)c2cccc(NS(=O)(=O)c3cccs3)c2O[C@H]1CN(C)C(=O)Nc1cccc2ccccc12,0.15,24,11,0.9
Cc1noc(C)c1S(=O)(=O)Nc1ccc2c(c1)CC(=O)N([C@@H](C)CO)C[C@H](C)[C@@H](CN(C)Cc1ccccc1)O2,-0.31,-10,-3,1.1
Cc1nc(SCCCSc2n[nH]c(C)n2)n[nH]1,.,.,-10,2.6
COc1ccc(S(=O)(=O)N(C)C[C@H]2Oc3ccc(NC(=O)CCN4CCOCC4)cc3CC(=O)N([C@@H](C)CO)C[C@H]2C)cc1,0.2,-19,-7,0.5
O=C(CCNc1ccc(Oc2ccccc2)cc1)c1ccco1,.,.,38,-7.1
COC(=O)CNC(=O)c1cc(-c2ccncc2)nc2ccc(C)cc12,.,.,8,0.2
Cc1noc(C)c1NC(=O)N(C)C[C@@H]1Oc2ccc(NC(=O)Cc3cn(C)c4ccccc34)cc2C(=O)N([C@@H](C)CO)C[C@@H]1C,0.27,.,13,-0.6
OC(Cc1ccccc1)(c1ccccc1)c1ccccc1NC(=S)NC1CC2C=CC1C2 (stereo unspecified),-0.31,-22,13,0.7
COc1ccc(-c2nc3ccccc3s2)cc1NC(=O)COc1ccc(C(C)C)cc1,.,.,67,2.2
C[C@@H]1CN([C@H](C)CO)C(=O)c2cc(NC(=O)Nc3ccc4c(c3)OCO4)ccc2O[C@H]1CN(C)S(=O)(=O)c1cccs1,-0.59,-9,-19,-1.2
C[C@@H]1CN([C@@H](C)CO)C(=O)c2cccc(NC(=O)Nc3ccc(F)cc3)c2O[C@@H]1CN(C)Cc1ccccc1,-0.37,-52,-40,.
CNC(=O)CN(c1cc(C)ccc1OC)S(C)(=O)=O,.,.,-4,1.4
COc1c(O)cc2c(-c3ccccc3)cc(=O)oc2c1OC,0.13,-41,10,.
COc1cc(/C=C/C(=O)O[C@@H]2O[C@H](CO[C@@H]3O[C@H](CO)[C@@H](O)[C@H](O)[C@H]3O)[C@@H](O)[C@H](O)[C@H]2OC(=O)/C=C/c2cc(OC)c(O)c(OC)c2)cc(OC)c1O,-0.092,-23,-14,-0.4
Cc1noc(C)c1S(=O)(=O)Nc1ccc2c(c1)C(=O)N([C@H](C)CO)C[C@@H](C)[C@H](CN(C)Cc1ccncc1)O2,-0.00097,-10,3,0.5
C[C@@H]1CN([C@@H](C)CO)C(=O)c2cc(NC(=O)c3ccncc3)ccc2O[C@H]1CN(C)C(=O)Nc1ccc(F)cc1,-0.25,.,0,-0.2
C=C1[C@]2(C)C[C@@H]3C(=C)[C@@]4(C=CC(=O)OC4(C)C)CC[C@@]3(C)[C@]13C(=O)O[C@H](C)[C@]3(O)C2=O,-0.44,-8,4,-0.7
C[C@@H]1CN([C@H](C)CO)C(=O)c2cccc(NS(=O)(=O)c3ccc(F)cc3)c2O[C@@H]1CN(C)Cc1ccc(Oc2ccccc2)cc1,-0.31,10,-7,-1.4
C[C@H](CO)N1C[C@H](C)[C@@H](CN(C)S(C)(=O)=O)Oc2ccc(NC(=O)C3CCCCC3)cc2C1=O,-0.0028,-4,3,2.0
C[C@@H]1CN([C@@H](C)CO)C(=O)c2cccc(NC(=O)c3cnccn3)c2O[C@@H]1CN(C)S(=O)(=O)c1ccc(Cl)cc1,-0.31,48,-15,.
CCN1CCN(C(=O)CSc2nc(-c3ccc(OC)c(OC)c3)cc(C(F)(F)F)n2)CC1,.,.,23,-1.8
CNC[C@H]1OCCCC[C@@H](C)Oc2ccc(N(C)C)cc2C(=O)N([C@H](C)CO)C[C@@H]1C,0.28,-12,-1,0.2

# Going on with the list.
molecule,YB-1 expr inh,Hedgehog inh,MITF inhib,PD-1 reverse act
COc1ccc(S(=O)(=O)Nc2ccc3c(c2)CC(=O)N([C@H](C)CO)C[C@@H](C)[C@@H](CN(C)C(=O)NC(C)C)O3)cc1,0.15,-8,6,2.3
Cc1ccc(S(=O)(=O)N(C)C[C@@H]2Oc3ccc(NC(=O)Nc4c(C)noc4C)cc3CC(=O)N([C@@H](C)CO)C[C@@H]2C)cc1,-0.024,-29,-7,.
C[C@H]1CN([C@@H](C)CO)C(=O)c2cc(NC(=O)C3CC3)ccc2O[C@H]1CN(C)Cc1ccc(Cl)c(Cl)c1,0.31,18,5,-0.7
CC(C)NC(=O)N(C)C[C@H]1Oc2c(NC(=O)Nc3ccc(C(F)(F)F)cc3)cccc2C(=O)N([C@H](C)CO)C[C@@H]1C,0.24,4,-10,-1.7
COc1ccc(OCC(=O)Nc2cccc(Cl)c2N2CCOCC2)cc1,.,.,8,0.0
Cc1[nH]c2ccccc2c1/C=C/c1nc2ccccc2c(=O)n1CCCO,.,.,-1,-2.3
C[C@H]1CN([C@@H](C)CO)C(=O)c2cc(NS(=O)(=O)c3cn(C)cn3)ccc2O[C@H]1CN(C)C(=O)Nc1ccc2c(c1)OCO2,-0.13,.,16,0.0
C[C@H]1CN([C@@H](C)CO)C(=O)Cc2cc(NC(=O)Cn3cnnn3)ccc2O[C@@H]1CN(C)Cc1ccc(Oc2ccccc2)cc1,-0.2,.,24,0.8
C[C@H]1CN([C@@H](C)CO)C(=O)Cc2cc(NS(C)(=O)=O)ccc2O[C@@H]1CN(C)S(=O)(=O)c1cn(C)cn1,-0.5,-20,-40,0.4
COC(=O)C1=CO[C@@H](O[C@@H]2O[C@H](CO)[C@@H](O)[C@H](O)[C@H]2O)[C@H]2[C@@H]1C=CC21C=C([C@H](C)O)C(=O)O1 (stereo partly specified),-0.25,-25,0,0.9
C[C@@H]1CN([C@H](C)CO)C(=O)c2cccc(NC(=O)C3CCCCC3)c2O[C@H]1CN(C)CC1CC1,-0.36,-12,21,-7.3
O=C(O)CCc1nn2c3ccccc3nc2n(Cc2ccccc2)c1=O,.,.,-12,-0.4
C[C@@H]1CN([C@@H](C)CO)C(=O)c2cccc(NS(=O)(=O)c3cn(C)cn3)c2O[C@@H]1CN(C)C(=O)NC1CCCCC1,0.23,.,-8,.
C[C@@H]1CN([C@@H](C)CO)C(=O)c2cccc(NC(=O)C3CC3)c2O[C@H]1CN(C)Cc1ccc(-c2ccccc2)cc1,-0.13,-10,36,-2.1
C[C@@H]1CN([C@@H](C)CO)C(=O)Cc2cc(NC(=O)C3CC3)ccc2O[C@@H]1CN(C)C,0.25,-5,-2,.
CC(C)(C)C(=O)Nc1ccc(-c2cc3cc(Cl)ccc3o2)cc1,-0.077,26,-16,-0.4
Cc1cccc(Cl)c1OC(=O)c1cc(C(C)(C)C)nn1C,-0.067,-9,-24,-1.0
CCCCCC[C@H](O)/C=C/CC1C(=O)CC[C@H](O)C1=O (stereo partly specified),0.35,-33,-11,-0.9
CNC[C@@H]1Oc2c(NS(=O)(=O)c3ccccc3)cccc2C(=O)N([C@@H](C)CO)C[C@H]1C,0.23,17,-7,.
Cn1c(SCC(=O)Nc2cccc(Br)c2)nnc1-c1ccccc1Cl,.,.,61,1.2
COc1ccc(NC(=O)Nc2ccc3c(c2)C(=O)N([C@H](C)CO)C[C@H](C)[C@H](CN(C)C(=O)NC2CCCCC2)OCCCC[C@@H](C)O3)cc1,0.43,-39,2,1.4
Cc1cc(C)c(OCC(=O)Nc2ccc3oc(-c4cncc(Br)c4)nc3c2)c(Cl)c1,.,.,-80,0.7
C[C@H]1CN([C@@H](C)CO)C(=O)c2cccc(NC(=O)c3nc4ccccc4s3)c2O[C@@H]1CN(C)C(=O)Nc1ccccc1,0.14,16,2,-1.4
Cc1noc(C)c1NC(=O)Nc1ccc2c(c1)C(=O)N([C@H](C)CO)C[C@@H](C)[C@H](CN(C)Cc1ccc(Oc3ccccc3)cc1)O2,0.05,-24,-6,-1.4
O=C(CCc1nc(-c2ccccc2)no1)Nc1ccc([N+](=O)[O-])cc1,.,.,20,-0.9

# Carrying on.
# The line under a structure holds: YB-1 expr inh, Hedgehog inh, MITF inhib, PD-1 reverse act
> CC(C)NCC(O)COc1cccc2ccccc12 (stereo unspecified)
    0.066, -22, 2, 4.6
> COc1ccc(C)cc1S(=O)(=O)N(C)CC(=O)N1CCN(c2ccccc2)CC1
    ., ., -5, -1.6
> C[C@@H]1CN([C@H](C)CO)C(=O)c2cc(NC(=O)Nc3ccccc3)ccc2O[C@@H]1CN(C)S(=O)(=O)c1ccc(F)cc1
    0.35, -16, 4, 2.7
> CS(=O)(=O)N(CC(=O)NC1CC1)c1ccc(Cl)c(C(F)(F)F)c1
    ., ., -13, -0.3
> CS(=O)(=O)N(CC(=O)Nc1cccc([N+](=O)[O-])c1)c1cc(Cl)c(Cl)cc1Cl
    ., ., 14, 1.4
> Cc1ccc(-n2c(SCC(=O)Nc3ccccc3F)nnc2-c2ccccc2)cc1C
    ., ., 10, -6.8
> O=C(Nc1ccc(I)cc1C(=O)NCCN1CCOCC1)c1ccccc1Cl
    ., ., -6, -0.9
> C[C@@H]1CCCCO[C@H](CN(C)C(=O)Nc2ccc(F)cc2)[C@@H](C)CN([C@H](C)CO)C(=O)c2cc(NS(=O)(=O)c3ccc(F)cc3)ccc2O1
    0.041, 22, 9, -1.7
> C[C@H]1CN([C@@H](C)CO)C(=O)c2cccc(NC(=O)Nc3ccccc3)c2O[C@@H]1CN(C)CC1CC1
    0.17, 4, -2, .
> CC(C)OC(=O)CSc1nnc(-c2ccccc2)o1
    -0.94, ., -6, 0.9
> C[C@H]1CN([C@@H](C)CO)C(=O)c2cc(NS(=O)(=O)c3cccs3)ccc2O[C@H]1CN(C)Cc1ccc2c(c1)OCO2
    0.47, -5, 10, -1.9
> CC(C)NC(=O)N(C)C[C@@H]1Oc2ccc(NS(=O)(=O)c3ccc(F)cc3)cc2C(=O)N([C@H](C)CO)C[C@H]1C
    -0.25, -41, -6, 0.8
> O=C(CN(C1CCCCC1)S(=O)(=O)c1ccc(Cl)cc1)Nc1ccccc1F
    ., ., 5, 0.3
> C[C@H]1CN([C@@H](C)CO)C(=O)c2cc(NC(=O)Nc3ccc4c(c3)OCO4)ccc2O[C@@H]1CN(C)Cc1ccc(C(=O)O)cc1
    -0.59, 31, -2, 0.0
> C[C@@H]1CN([C@H](C)CO)C(=O)Cc2cc(NS(C)(=O)=O)ccc2O[C@H]1CN(C)Cc1ccc(-c2ccccc2)cc1
    -0.29, -44, 27, -2.4
> COc1cc(NS(=O)(=O)c2ccc(NC(=O)C34CC5CC(CC(C5)C3)C4)cc2)ncn1
    ., ., -6, 0.2
> Cc1ccc(S(=O)(=O)N(C)C[C@H]2Oc3ccc(NC(=O)C4CC4)cc3C(=O)N([C@H](C)CO)C[C@H]2C)cc1
    0.17, 2, -20, -0.6
> CCOc1ccc(C(=O)c2ccc(O)c(O)c2O)cc1
    -0.34, -15, -58, .
> C[C@H](CO)N1C[C@H](C)[C@@H](CN(C)Cc2ccc(C(=O)O)cc2)Oc2ccc(NS(=O)(=O)c3ccccc3)cc2C1=O
    0.13, 20, 11, .
> C[C@@H]1CN([C@H](C)CO)C(=O)c2cc(NC(=O)CCN3CCOCC3)ccc2O[C@H]1CN(C)S(=O)(=O)c1cn(C)cn1
    -0.0062, ., -15, -0.7

# Other results.
# The line under a structure holds: YB-1 expr inh, Hedgehog inh, MITF inhib, PD-1 reverse act
> C[C@H]1CN([C@@H](C)CO)C(=O)Cc2cc(NC(=O)Nc3ccc4c(c3)OCO4)ccc2O[C@H]1CN(C)S(C)(=O)=O
    1.6, 8, 10, 0.7
> O=C(CSc1nnc(-c2ccccc2)n1-c1ccccc1)N1CCOCC1
    ., ., -7, 1.6
> Cc1ccc(S(=O)(=O)N(C)C[C@H]2Oc3c(NC(=O)C4CCCCC4)cccc3C(=O)N([C@H](C)CO)C[C@H]2C)cc1
    -0.18, -5, 1, -1.8
> COc1cc(/C=C/C=O)cc(OC)c1O
    0.0079, -17, ., .
> Cc1noc(C)c1NC(=O)Nc1ccc2c(c1)CC(=O)N([C@@H](C)CO)C[C@H](C)[C@H](CN(C)S(=O)(=O)c1c(C)noc1C)O2
    -0.16, 3, -11, -0.2
> CN(C)/C=C/C=C1\N=C(c2ccccc2)OC1=O
    0.42, -93, -3, -0.9
